# Source: PubChem
# RE007 growth inh – less growth of the S. pombe RE007 Vpr strain | S. pombe RE007 Vpr strain, BacTiter-Glo ATP luminescence, 24 h; control for the full effect not named in the record | Potency, µM (doses to about 92.2 µM), for the others: top-dose activity change, negative = less growth | 0.21% of 360,000 active | AID 651644; active = well fitted falling curve with a large enough effect; inconclusive = small, poorly fitted or top-dose-only effect; inactive = no such curve, though single readings can be large or run the other way;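 note: % is set by controls: 0 for no effect and ±100 for the full control effect; nearly all actives have a fitted effect of over 50% in size; the assay follows cell death caused by Vpr and the record does not say whether a fall means rescue or toxicity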
#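 Fission yeast strain RE007, carrying one chromosomally integrated HIV-1 vpr copy, was seeded at OD 0.01 in PMG+AL medium with 23 nL pinned compound. After 24 h at 30 °C and 99% humidity, viability was read by BacTiter-Glo luminescence.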
# Lassa entry inh – inhibitors of Lassa virus binding or cell entry | AID 540256 | Potency, µM (highest dose often 37.9 µM), without a hit: at the top dose activity change, negative = inhibition, hits mostly inhibitors | Lassa virus pseudotype entry inhibition, cell reporter; control for the full effect not named in the record | 1.2% of 300,000 active; active means well fitted inhibition curve with a large enough effect; inconclusive means small, poorly fitted or top-dose-only effect, or effect the other way; inactive means flat fitted curve, though single readings scatter; tested in HEK293 cells; note: % is set by controls: 0 for no effect and ±100 for the full control effect; nearly all actives have a fitted effect of over 50% in size; luciferase read-out
# Marburg entry inh – Marburg virus entry inhibition. Marburg virus pseudotyped entry inhibition, cell reporter; control for the full effect not named in the record; about a third of the inactives were read at about 46 µM. Potency, µM (series often up to 37.8 µM), inactives show top-dose activity change, negative = inhibition, actives largely listed as inhibitors. 1.8% of 300,000 active. AID 540276; active = well fitted inhibition curve with a large enough effect; inconclusive = small, poorly fitted or top-dose-only effect, or effect the other way; inactive = flat fitted curve, though single readings scatter; tested in HEK293 cells; about a fifth of its hits are not listed in these tables; note: % is set by controls: 0 for no effect and ±100 for the full control effect; luciferase read-out
# StopGo reporter – lowers the luciferase signal of an FMDV 2A StopGo reporter; Potency, µM (top dose mostly 57.9 µM), inactives show top-dose signal change, negative = less light; human cells with a luciferase reporter of 2A StopGo recoding; control for the full effect not named in the record; 1.2% of 410,000 active; AID 1159524; active = well fitted falling curve with a large enough effect; inconclusive = small, poorly fitted or top-dose-only effect; inactive = no such curve, though single readings can be large or run the other way; tested in HEK293T cells; note: % is set by controls: 0 for no effect and ±100 for the full control effect; nearly all actives have a fitted effect of over 45% in size; luciferase light after 4 h
# NS1 inh – influenza NS1 inhibition. Potency, µM (top dose mostly 46.1 µM), for the others: at the top dose activity, positive = more growth. S. cerevisiae slowed by influenza A NS1, growth recovery by OD600. 0.4% of 270,000 active. AID 2326; note: actives are rising curves; nearly all actives have a fitted effect of over 50% in size
#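 Recovery from NS1-induced slow growth read by OD600 in budding yeast switched to galactose assay medium (pH 6.0, -URA) at 1:100 dilution. Compound 23 nl per well; the matching strain lacking NS1 serves as control.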
# Cruzain Triton – inhibitors of Trypanosoma cruzi cruzain with detergent | purified cruzain, Z-FR-AMC fluorescence, 0.01% Triton | Potency, µM, inactives show max response, negative = inhibition, hits mostly inhibitors | 0.43% of 200,000 active | AID 1478; active = well fitted curve in the direction sought with a large enough effect; inconclusive = small, poorly fitted or top-dose-only effect, or another doubt; inactive = no such curve, though single readings can be large; an effect the other way counts as inactive or inconclusive;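 note: plate controls were neutral wells for no effect and buffer without enzyme for full effect; nearly all actives have a fitted effect of over 40% in size; top concentration of the series not given in the record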
# Target sequence (P25779 123-467 limits assumed): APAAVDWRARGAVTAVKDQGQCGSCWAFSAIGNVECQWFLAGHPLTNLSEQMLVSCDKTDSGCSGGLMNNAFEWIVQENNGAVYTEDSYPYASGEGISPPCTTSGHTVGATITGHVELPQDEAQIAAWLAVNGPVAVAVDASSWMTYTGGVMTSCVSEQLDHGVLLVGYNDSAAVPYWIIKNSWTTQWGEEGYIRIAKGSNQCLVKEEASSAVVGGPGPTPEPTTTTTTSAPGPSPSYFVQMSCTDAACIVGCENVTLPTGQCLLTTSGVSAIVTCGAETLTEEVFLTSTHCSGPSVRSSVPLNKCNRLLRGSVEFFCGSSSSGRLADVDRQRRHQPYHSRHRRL
#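 Z-FR-AMC hydrolysis (2 uM substrate) by cruzain (1.5 nM) monitored kinetically at ex 360/em 450 nm after 15 min room-temperature compound exposure; 0.01% Triton X-100, pH 5.5, 5 mM DTT.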
# Cruzain noTriton – blocks cruzain activity in detergent-free assay; 2.3% of 200,000 active; Potency, µM, without a hit: max response, negative = inhibition, usual class: inhibitors; AID 1476; purified cruzain, Z-FR-AMC fluorescence, no detergent; P25779; active = well fitted curve in the direction sought with a large enough effect; inconclusive = small, poorly fitted or top-dose-only effect, or another doubt; inactive = no such curve, though single readings can be large; an effect the other way counts as inactive or inconclusive;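 note: plate controls were enzyme without inhibitor for no effect and buffer without enzyme for full effect; nearly all actives have a fitted effect of over 40% in size; top concentration of the series not given in the record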
#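 Detergent-free condition (0.00005% Triton X-100) in acetate buffer pH 5.5 with DTT. 1.5 nM enzyme and compound were pre-mixed 15 min, then 2 uM Z-FR-AMC substrate added; reaction progress from fluorescence change between first and third reads (60 s).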
# SARS PLP yeast – blocks SARS-CoV papain-like protease in a yeast assay; 0.19% of 330,000 active; AID 485353; Potency, µM (top dose mostly 32.9 µM), for inactives: top-dose activity, positive = growth rescue; S. cerevisiae expressing SARS-CoV PLpro, growth rescue; control for the full effect not named in the record; note: 0% is about no effect; nearly all actives have a fitted effect of over 55% in size; growth read by luminescence after 48 h
# * marks the source's active call; other numbers are inactive results; ? = inconclusive; · = no result given; & = joins results of further samples; [ ] = dose if it differs, or a comment. Unless noted, calls come from the whole dose curve; as a rule, active means well fitted rising curve with a large enough effect; inconclusive means small, poorly fitted or top-dose-only effect; inactive means no such curve, though single readings can be large or run the other way. Potency is the fitted concentration of half-maximal effect. The order is random; any-hit rate near 4.7%.
SMILES,RE007 growth inh,Lassa entry inh,Marburg entry inh,StopGo reporter,NS1 inh,Cruzain Triton,Cruzain noTriton,SARS PLP yeast
Cc1cc(CN(C)C(=O)c2ccc3nc(Cc4ccccc4F)oc3c2)on1,9.2%,?,?,27.8%,-25.6%,·,·,-8.0%
CC1(C)CN=C(N2CCN(C3=NCC(C)(C)S3)CC2)S1,·,·,-2.5%,·,1.9%,4.3%,0.3%,3.2%
Cc1ccc(NC(=O)CN2CCN(CCN=CC3=C(O)CC(C)(C)CC3=O)CC2)cc1,0.1%,14.4%,9.7%[46.1 µM],-5.0%,6.0%,0.8%,-0.5%,-7.1%
Cc1ccc(NC(=O)Cn2cc(C(=O)c3cccs3)c3ccccc32)cc1C,·,?,11.2µM*,-6.6%,·,-5.9%,-20.4%,·
O=C(O)c1ccc(Oc2ccccc2)o1,1.9%,·,·,10.1%,-0.7%,·,·,1.0%
CCC(=O)Nc1nc(C)c(C(=O)N2CCCCC2)s1,3.8%,15.7%,12.5%,·,4.1%,3.0%,-5.4%,7.0%
COc1ccc(N2CCN(S(=O)(=O)CCNC(=O)C3CC(=O)N(c4ccccc4)C3)CC2)cc1 (configuration not stated),0.9%,16.4%&21.1%[46.1 µM],23.1%&23.1%[46.1 µM],-10.2%&13.0%,-5.1%,-0.4%,16.4%,1.9%
Cc1cc(NC(=O)CC(C)(C)C)nc2c1c(=O)oc1ccccc12,3.1%,-3.4%,-13.3%,·,0.6%,1.8%,-4.7%,?
CC1(C)OC(=O)N(c2cccnc2)C1(C)O (configuration not stated),-6.6%,2.2%,12.2%,-14.5%,1.5%,4.3%,2.6%,1.9%
Cc1ccc(NC(=O)CSc2ccc(-c3ccccn3)nn2)cc1F,-24.5%,-2.8%[46.1 µM],·,-12.1%&-0.5%,-33.3%,-1.3%,9.3%,-1.7%
Cc1nc(NCCc2ccccc2)sc1C(=O)N(C)C,-8.3%,-18.5%,?,24.5%,-6.8%,·,·,1.2%
O=C(C1COc2ccccc2O1)N1CCN(c2nc3c(F)cccc3s2)CC1 (configuration not stated),·,2.4%[46.1 µM],·,-25.4%,·,-11.2%,-18.3%,·
O=C(c1ccc(OC2CCN(Cc3cccc(F)c3)CC2)cc1)N1CCCCC1,-12.1%,-9.7%,-8.2%,6.2%,9.4%,·,·,21.9%
C=CCn1c(SCC(=O)NC(=O)Cc2ccccc2)nnc1-c1ccccc1F,6.2%,18.0%[46.1 µM],4.7%[46.1 µM],1.0%,·,·,·,1.6%
CCc1ccc(C2CC(=O)c3c([nH]c(C(=O)OCc4ccc(C)cc4)c3C)C2)cc1 (configuration not stated),·,11.7%[46.1 µM],?,-7.3%,·,-0.3%,-4.0%,·
CCOC(=O)c1c(NC(=O)/C=C/c2ccc(C)cc2)sc2c1CCCC2,·,22.7%[46.1 µM],·,4.1%,·,-1.3%,-3.0%,·
CN(C)c1cc(-c2cccc([N+](=O)[O-])c2)oc(=O)c1Cl,-7.5%,5.8%,-0.8%[46.1 µM],-9.6%,-1.7%,·,·,0.1%
C=C(C)Cn1c(=O)c2c(nc3n2CCN3c2cc(C)cc(C)c2)n(C)c1=O,·,?,·,-17.1%,·,-8.9%,29.3%,·
O=C(/C=C/Sc1ncn[nH]1)c1ccc(Cl)cc1,?,?,?,28.2µM*,-163.6%,-14.1%,-22.3%,-35.0%
C=CCn1cccc(C(=O)Nc2ccc(OC)c(Cl)c2)c1=O,-6.0%,7.8%[46.1 µM],12.2%[46.1 µM],-2.6%,-8.0%,·,·,-4.0%
CC(=O)C1=C(O)C(=O)N(c2ccc(C(=O)O)cc2)C1c1ccc([N+](=O)[O-])cc1 (configuration not stated),5.5%,·,·,4.3%,29.7%,·,·,5.4%
CCOc1ccc2nc(N3CCCC(C(=O)NCCc4ccc(SC)cc4)C3)sc2c1 (configuration not stated),·,·,?,32.5%[activator],·,-0.3%,-14.5%,·
Cc1onc(-c2c(Cl)cccc2Cl)c1C(=O)N=C(N)N1CC(C)OC(C)C1 (configuration not stated),5.8%,?,-29.5%[46.1 µM],-26.0%,-2.9%,·,·,0.4%
O=C(Cn1nc(-c2ccccc2)c2ccccc2c1=O)Nc1ccc(O)cc1,13.5%,·,·,-20.2%,7.1%,·,·,0.0%
COCC(C)OC(=O)c1c(N)n(-c2ccc(OC)c(OC)c2)c2nc3ccccc3nc12 (configuration not stated),4.1%,·,·,-1.0%,1.3%,·,·,0.8%
Cc1ccc(-c2nc3c4ccccc4ccn3c2CN2CCCCC2)cc1,0.1%,·,·,6.0%,-1.4%,·,·,1.2%
COc1ccc(S(=O)(=O)N2CCOCC2)cc1C(=O)N1CCCC1,-13.8%,1.3%,9.3%,-7.4%,1.2%,·,·,-3.7%
Cc1ccc(NC(=O)CN2CCC3(O)CCCCC3C2c2ccc3c(c2)OCO3)c(C)c1 (configuration not stated),10.4%,-12.3%,?,-27.7%,-95.5%,-1.5%,7.4%,-2.5%
O=C(CCC(=O)c1ccc(F)cc1)Nc1cccc(Br)c1,-18.9%,·,·,-4.1%,-2.9%,·,·,0.8%
COc1cc(C(=O)N2CCN(Cc3ccccc3C(F)(F)F)CC2)cc(OC)c1OC,8.6%,?,-21.0%,-26.8%,-36.6%,7.1%,?,8.9%
Cc1ccsc1C(=O)OCC(=O)Nc1sccc1C(N)=O,16.6%,2.6%,-3.2%,8.4%,1.0%,-1.1%,-18.3%,-5.5%
CC(C)CCNC(=O)NC(=O)COc1ccccc1C#N,?,-19.1%,17.1%,59.4%[activator],-1.0%,12.0%,-2.7%,-5.6%
CN(C)c1ccc(/C=C2\C(=N)N3N=C(CC(=O)N4CCCCC4)SC3=NC2=O)cc1,0.0%,10.7%,16.6%[46.1 µM],22.3%,0.0%,·,·,-4.6%
COc1ccc(NC(=O)COC(=O)CC2Sc3ccccc3NC2=O)cc1 (configuration not stated),6.4%,?,9.2%,39.1%[activator],·,·,·,-2.8%
CCOc1cc(CO)ccc1OCC(=O)N1CCCCC1,21.5%,16.0%,24.6%,11.1%,3.1%,3.4%,-6.4%,1.0%
CCC(=O)Nc1ccc2oc(-c3cccnc3)nc2c1,4.5%,?,6.3%,44.0%[activator],-5.6%,·,·,-0.7%
O=C(Nc1cccc2ccccc12)c1ccccc1NS(=O)(=O)c1cccc2cccnc12,23.2%,10.7%,-0.4%,-4.2%,11.2µM*,-1.1%,-8.0%,27.2%
CCOC(=O)/C=C/C(=O)Nc1ccc(S(=O)(=O)N(C)c2ccccc2)cc1,3.2%,1.4%,?,?,·,·,·,-1.7%
O=C(N/C(=C/c1ccc(Br)cc1)C(=O)N1CCOCC1)c1cccs1,-18.6%,17.9%,-0.5%[46.1 µM],21.5%,-0.5%,·,·,-0.4%
Cc1ccccc1NC(=O)c1c(C)[nH]c(=S)c(C#N)c1-c1ccc(Cl)cc1,9.6%,-10.9%,29.7%[46.1 µM],-2.0%,2.2%,·,·,0.4%
O=C(CN1C(=O)C2CCCCN2c2ccc(C(=O)N3CCCC3)cc21)NCc1cccc(Cl)c1 (configuration not stated),·,-15.9%[46.1 µM],·,28.9%,·,-4.0%,-7.5%,·
CCc1ccccc1NC(=O)CSc1nc2ccccc2n1CC(=O)N(C)C,0.0%,13.9%,22.0%&-2.9%,·,-2.1%,-0.9%,12.7%,2.0%
O=C(O)C1CCC(=O)N1Cc1ccccc1Cl (configuration not stated),-11.1%,-1.8%,-0.8%,-9.3%,2.2%,3.6%,8.3%,-1.1%
CCOCCCNC(=O)c1ccc2c(=O)n(CCc3ccc(OC)c(OC)c3)c(=O)[nH]c2c1,·,-25.6%[46.1 µM],·,-21.9%,·,0.4%,5.6%,·
Cc1cc(C(=O)COC(=O)C2COc3ccccc3O2)c(C)n1CC1CCCO1 (configuration not stated),3.0%,-12.3%,24.3%,7.8%,-7.4%,-2.2%,24.1%,-8.3%
Cc1c(-c2ccccc2)[n+](=O)c(-c2ccc(Br)cc2)c(C)n1[O-],-9.2%,·,·,-13.3%,-0.3%,·,·,1.9%
C=CCNCC(O)COc1ccc(C(C)=O)cc1OC (configuration not stated),-13.7%,-2.4%,0.1%,-6.9%,2.8%,·,·,0.7%
CSc1ccccc1C(=O)OCC(=O)NCCN1C(=O)CSC1=O,1.5%,-2.5%,6.4%,-4.5%,·,·,·,·
CN(C)CCCN1C(=O)C(=O)/C(=C(/O)c2ccncc2)C1c1ccccc1 (configuration not stated),-0.4%,-6.8%,12.5%,?,5.7%,4.1%,-2.2%,6.3%

# Entries above that have fluorine:
SMILES,RE007 growth inh,Lassa entry inh,Marburg entry inh,StopGo reporter,NS1 inh,Cruzain Triton,Cruzain noTriton,SARS PLP yeast
Cc1cc(CN(C)C(=O)c2ccc3nc(Cc4ccccc4F)oc3c2)on1,9.2%,?,?,27.8%,-25.6%,·,·,-8.0%
Cc1ccc(NC(=O)CSc2ccc(-c3ccccn3)nn2)cc1F,-24.5%,-2.8%[46.1 µM],·,-12.1%&-0.5%,-33.3%,-1.3%,9.3%,-1.7%
O=C(C1COc2ccccc2O1)N1CCN(c2nc3c(F)cccc3s2)CC1 (configuration not stated),·,2.4%[46.1 µM],·,-25.4%,·,-11.2%,-18.3%,·
O=C(c1ccc(OC2CCN(Cc3cccc(F)c3)CC2)cc1)N1CCCCC1,-12.1%,-9.7%,-8.2%,6.2%,9.4%,·,·,21.9%
C=CCn1c(SCC(=O)NC(=O)Cc2ccccc2)nnc1-c1ccccc1F,6.2%,18.0%[46.1 µM],4.7%[46.1 µM],1.0%,·,·,·,1.6%
O=C(CCC(=O)c1ccc(F)cc1)Nc1cccc(Br)c1,-18.9%,·,·,-4.1%,-2.9%,·,·,0.8%
COc1cc(C(=O)N2CCN(Cc3ccccc3C(F)(F)F)CC2)cc(OC)c1OC,8.6%,?,-21.0%,-26.8%,-36.6%,7.1%,?,8.9%
